From PubChem BioAssay
Sfp PPTase inh – blocks B. subtilis Sfp PPTase activity; Q9F4F7; Biochemical Sfp PPTase activity, qHTS; Potency, µM, without a hit: max response, negative = inhibition, actives largely listed as inhibitors; actives 3.5% (n = 310,000); AID 1490; active = well fitted inhibition curve with a large enough effect; inconclusive = small, poorly fitted or top-dose-only effect, or another doubt; inactive = no such curve, though single readings can be large or run the other way;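 also: the enzyme is Sfp with the accession as filed and its product quenches rhodamine fluorescence; potency is read from the fitted curve at half-maximal effect; 0% = enzyme reaction without inhibitor and -100% = no enzyme wells; top concentration of the series not given in the record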
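Sfp 15 nM + cpd, 15 min RT; start w/ rhodamine-CoA 5 uM, BHQ-2-YbbR 12.5 uM (final); 50 mM Hepes pH 7.6, 10 mM MgCl2, 0.01% NP-40, 0.01% BSA; read 525/598 nm at 0 and 30 min.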
TRPML1 agonist – agonists of human TRPML1 channel; Q9GZU1; TRPML1-expressing cells, Ca2+ dye fluorescence, FDSS; host cell line not named in the record; reference of the full effect not given here; activation, % (concentration not given with the values); actives 0.12% (n = 410,000); in the data active = activation above about 50%; inconclusive = about 30% to 50%; inactive = below about 30%; also: 0% is about no effect; the text of the record puts the active cut at 80%
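TRPML1-DL cells, Tet-induced overnight (~16 h, 37 degrees C), loaded 45-90 min at room temperature with Ca8 no-wash calcium dye plus quencher. FDSS fluorescence: 10 s baseline, compound pin-transfer, 110 s agonist read, then EC80 54-4 (4uM final) and 110 s antagonist read.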
TRPV1 PAM – potentiators of human vanilloid receptor 1 (TRPV1) | Q8NER1 | TRPV1-expressing cells, Fluo-8 calcium influx, capsaicin EC20 potentiation; host cell line not named in the record; control for the full effect not named in the record | potentiation, % at 8.33 µM | actives 0.02% (n = 320,000); active means potentiation above 80%; inconclusive means 30% to 80%; inactive means below 30%; also: 0% is about no effect
Target sequence (Q8NER1 whole entry, looked up): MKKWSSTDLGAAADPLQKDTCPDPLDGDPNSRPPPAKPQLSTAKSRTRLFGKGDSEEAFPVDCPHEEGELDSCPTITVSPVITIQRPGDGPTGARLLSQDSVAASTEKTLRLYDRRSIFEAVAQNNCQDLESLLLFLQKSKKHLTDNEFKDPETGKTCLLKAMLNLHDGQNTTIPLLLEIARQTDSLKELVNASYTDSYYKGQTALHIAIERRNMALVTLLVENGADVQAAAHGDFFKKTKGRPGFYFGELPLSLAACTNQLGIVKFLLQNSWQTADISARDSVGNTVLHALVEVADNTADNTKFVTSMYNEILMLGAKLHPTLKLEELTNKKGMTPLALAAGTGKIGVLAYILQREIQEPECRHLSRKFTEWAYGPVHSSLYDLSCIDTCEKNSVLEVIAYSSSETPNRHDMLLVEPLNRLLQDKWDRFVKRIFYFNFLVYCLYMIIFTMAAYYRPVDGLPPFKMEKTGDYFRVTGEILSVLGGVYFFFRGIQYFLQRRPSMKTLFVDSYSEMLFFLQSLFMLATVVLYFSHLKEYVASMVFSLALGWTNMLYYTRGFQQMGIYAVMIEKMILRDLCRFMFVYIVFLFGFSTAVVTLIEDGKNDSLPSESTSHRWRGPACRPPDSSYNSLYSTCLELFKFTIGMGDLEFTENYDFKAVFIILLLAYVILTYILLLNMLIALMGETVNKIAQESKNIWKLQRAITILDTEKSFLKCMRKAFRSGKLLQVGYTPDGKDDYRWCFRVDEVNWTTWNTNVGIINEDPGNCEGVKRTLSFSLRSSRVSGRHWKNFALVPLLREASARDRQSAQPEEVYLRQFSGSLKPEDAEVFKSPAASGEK
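Cells expressing TRPV1 were dye-loaded with Fluo-8 and read kinetically: 10 s baseline, 3 min after compound (agonist portion), then 2 min after EC20 capsaicin (allosteric enhancer portion). Calcium-bound dye fluorescence at 480/520 nm.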
ClpP mod – qHTS Assay for Activators of ClpP. AID 651965, 2013. purified B. subtilis ClpP, FRET peptide cleavage, 20 min. Potency, µM (titrated, usually from 57.5 µM), for the others: at the top dose activity change, negative = active. actives 1.9% (n = 340,000); active = well fitted falling curve with a large enough effect; inconclusive = small, poorly fitted or top-dose-only effect; inactive = no such curve, though single readings can be large or run the other way; also: potency is read from the fitted curve at half-maximal effect; the source files actives as falling curves though it sought activators and does not explain the sign; nearly all actives have a fitted effect of over 65% in size; many hits overshoot -100%
Target sequence (P80244 whole entry, looked up): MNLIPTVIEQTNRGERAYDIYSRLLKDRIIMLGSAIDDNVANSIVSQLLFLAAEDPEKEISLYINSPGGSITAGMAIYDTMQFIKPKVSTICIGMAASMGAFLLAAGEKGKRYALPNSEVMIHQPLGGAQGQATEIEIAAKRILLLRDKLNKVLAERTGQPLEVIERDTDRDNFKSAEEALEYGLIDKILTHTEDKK
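ClpP 10 microg/mL final, pH 8 Tris/KCl buffer with BSA, glycerol, Tween-20; compound pinned in; FRET-FV substrate; RT 20 min; Ex320/Em430; ΔFRET vs ADEP 5.8 microM, DMSO, no enzyme.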
TRPML1 blocker – inhibitors of human TRPML1 channel; AID 624415; TRPML1-inducible cells, Ca2+ dye fluorescence, FDSS; stronger effect = lower value; inhibition of EC80 agonist-evoked calcium signal; Q9GZU1; actives 0.02% (n = 390,000); activity change, negative = inhibition, % (no concentration beside the values); in the data active means activity change below about -50%; inconclusive means about -30% to -50%; inactive means above about -30%;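 also: stimulus is agonist 54-4 at its EC80 concentration; % is scaled to controls: 0 for no effect and ±100 for the full control effect; compound concentration not given in the record; the text of the record puts the active cut at -80%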
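Tet-induced TRPML1-DL cells loaded with Ca8 no-wash calcium dye were read kinetically on FDSS. Compound addition was followed by EC80 agonist 54-4 (4 uM final); inhibition was read over 110 s.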
PINK1 modulator – PINK1 expression modulation. PINK1 immunofluorescence, high-content cytometry, 24 h. Potency, µM (doses to about 76.6 µM), inactives show top-dose activation (PINK1 increase), usual class: activators. actives 0.2% (n = 410,000). AID 624263; active = well fitted activation curve with a large enough effect; inconclusive = small, poorly fitted or top-dose-only effect; inactive = flat fitted curve, though single readings scatter; cell line not stated here;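 also: potency is read from the fitted curve at half-maximal effect; % of control where 0% means no effect; nearly all actives have a fitted effect of over 65% in size; a mitochondrial uncoupler was the plate control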
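Fluorescence from anti-PINK1 antibody, together with nuclear and cell stains, was scanned on a laser-scanning cytometer. Before staining, stable-line cells were incubated 24 hours with compounds at 5 concentrations; primary antibody 12 h at 10 degrees C.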
Menin-MLL FL inh – inhibitors of human menin-MLL interaction, wild-type MLL peptide. Fluorescence polarization, fluorescein-MLL peptide displacement from menin. FP activity change, % at 61.4 µM. 290,000 tested, under 10 active. AID 1766; inconclusive = falling polarisation curve, or a change in total fluorescence; inactive = total fluorescence flat and polarisation flat or rising; no compound was filed as active; the % refers to the polarisation; negative = inhibition;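 also: % of control where 0% means no effect; inhibitors lower the polarisation; unlabelled MLL peptide was the positive control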
* = called active by the depositor; ? = inconclusive; . = not tested or not shown; & = joins results of further samples; [ ] = another dose, or the depositor's remark.

SMILES	Sfp PPTase inh	TRPML1 agonist	TRPV1 PAM	ClpP mod	TRPML1 blocker	PINK1 modulator	Menin-MLL FL inh
CC1(CCc2ccccc2)NC(=O)N(CC(=O)N2CCCCCC2)C1=O (configuration not stated)	.	1.2	6.1	-0.6%	-16.4	-1.3%	.
Cc1cc(C)c(Cn2c3ccccc3c3cnn(CC(=O)NC4CCC(C)CC4)c(=O)c32)c(C)c1 (configuration not stated)	.	2.1	.	-11.1%	4.7	1.5%	.
COCCCNC(=O)C1C2C=CC3(CN(Cc4ccc(C)cc4)C(=O)C13)O2 (configuration not stated)	17.3%	0.3	-4.4	-1.9%	-4.5	-5.6%[38.3 µM]	3.1
N#CCCCSc1nnc(CSc2nc3ccccc3s2)n1-c1ccccc1	9.2%	0.8	-10.8	-0.4%	11.1	-0.6%	3.5
Cc1ccc(C)c2[nH]c(=O)c(CN(CC3CCCO3)S(=O)(=O)c3ccc4c(c3)OCCO4)cc12 (configuration not stated)	2.6%	2.5	-4.6	-18.4%	-0.9	-4.8%[38.3 µM]	2.4
CCOC(=O)c1ccc(NC(=O)CSCC(=O)OCC(=O)c2ccccc2)cc1	13.7%	0.0	-0.6	1.4%	8.0	0.5%	7.0
CC(OC(=O)CNC(=O)c1ccc(Cl)cc1)C(=O)NC1CCCCC1C (configuration not stated)	.	1.0	11.9	.	-10.5	-0.9%	.
CC1CN(c2ccc(Cl)cc2)c2nc3c(c(=O)[nH]c(=O)n3C)n2C1 (configuration not stated)	-5.1%	1.3	7.4	-3.8%	-8.4	0.0%	-2.0
COc1ccc([C@H]2C(C(=O)O)=C[C@@H](CC3CCCC3)N2S(=O)(=O)c2ccc(C)cc2)cc1OC	.	-0.3	.	0.0%	-2.5	-0.2%	.
CC(=O)c1ccc(NC(=O)CN(C)CC(=O)Nc2cccc(F)c2)cc1	-0.9%	0.6	11.4	.	-4.2	1.9%	1.3
COc1cccc(NC(=O)c2ccnc(N3CCC(C(=O)NCc4cc(OC)ccc4OC)CC3)c2)c1	-0.5%	-0.1	19.7	?	-8.2	0.7%	.
COc1ccc(CSC2=CS(=O)(=O)c3ccccc3N2)cc1	22.4%	-0.6	3.6	-3.9%	-10.8	-2.5%	-1.0
CCOC(=O)N1CCC(Nc2c(NCCN3CCN(Cc4ccccc4)CC3)c(=O)c2=O)CC1	4.9%	-0.2	24.2	1.3%	36.9	?	1.8
COc1ccc2[nH]c(=O)c(CN(C(C)=O)c3cccc(C)c3)cc2c1	13.2%	-0.4	7.5	35.5µM*	-12.3	-0.2%	5.1
N#Cc1ccc(C(c2nnnn2C2CCCC2)N2CCC(Cc3ccccc3)CC2)cc1 (configuration not stated)	2.1%	0.0	10.5	-0.3%	40.7	-1.6%	-0.9
Cc1nc2nc(C)c(CCC(=O)N3CCc4ccccc43)c(C)n2n1	9.0%	-0.5	2.8	-7.3%	17.9	8.0%[38.3 µM]	-0.8
COc1cccc(CNCCNC(=O)c2ccco2)c1OC	?	0.4	-12.9	1.0%	-9.5	2.3%	-0.4
CCOC(=O)c1cc(-c2ccccc2)nn1-c1ccccn1	-0.2%	0.0	4.7	-0.7%	-9.2	1.7%[38.3 µM]	5.2
O=C(O)c1cc(-n2[nH]c(=O)c3ccccc3c2=O)ccc1Cl	24.4%	0.3	-12.0	.	8.0	0.9%	1.4
CCC(CO)Oc1cc(NCc2ccc(C(F)(F)F)cc2)c2ncn(C(C)C)c2c1 (configuration not stated)	.	-0.6	.	-0.1%	7.3	-0.6%	.
CCCc1nc2oc3c(NCCN4CCOCC4)ncnc3c2c2c1CCCC2	11.0%	-0.8	-12.7	-15.1%	5.2	-2.3%	4.2
Cc1cc(C)cc(NC(=O)CSc2ccccc2)c1	13.1%	3.1	9.3	.	-17.1	-2.6%	-3.3
Cc1cc(C)c[n+](-c2nc([O-])sc2C=O)c1	2.4%	-0.2	?	0.9%	-13.2	4.0%	-13.4
CC(C)(C)c1ccc(OCC(=O)O)cc1	8.3%&14.7%	0.0	-19.8&0.6	0.5%	2.9	0.6%	-1.7&1.6
N#Cc1ccccc1COC(=O)CCC(=O)c1cccs1	.	0.9	2.4	-0.4%	3.0	1.8%	.
c1ccc(OCCOCCSc2ncccn2)cc1	0.6%	-1.4	-0.3	20µM*	-20.7	6.1%	1.2
CCn1c(SCC(=O)OC(C)C)nnc1-c1cccc(Cl)c1	2.9%	0.1	1.8	-0.1%	23.7	.	-0.7
COc1ccc(NC(=O)CC2SC(=NCC3CCCO3)NC2=O)c([N+](=O)[O-])c1 (configuration not stated)	-21.4%	0.9	-1.8	1.4%	20.7	1.5%	1.3
CC(=O)NCCNc1nc(NCC2CC2)nc2cc(-c3ccccc3)sc12	.	-0.8	.	-22.0%	.	5.2%	.
N#Cc1ccc(OCC(=O)NCCc2ccccn2)cc1	-4.7%	-0.7	10.1	-1.6%	37.4	-1.5%	0.0
O=C(C1CCCN(Cc2ccccc2)C1)N1CCCCC1 (configuration not stated)	?	-0.5	-20.8	-0.5%	5.2	-2.0%	2.4
O=C(CSc1c2c(nc3ccc(Cl)cc13)CCCC2)N1CCN(c2ccc(Cl)cc2)CC1	.	1.0	.	-7.9%	26.3	6.2%	.
CC(C)c1ccc(C2N3CC4([N+](=O)[O-])CN2CC([N+](=O)[O-])(C3)C4(C)C)cc1 (configuration not stated)	16.9%	0.4	-10.3	0.8%	9.0	1.7%	1.7
COc1ccc(C2(CNC(=O)CCC(=O)O)CCCC2)cc1OC	19.9%	-0.8	4.8	-3.2%	18.4	-1.9%	2.9
O=Cc1ccccc1-c1cn(CCCOCc2ccccc2)nn1	11.9%	-0.2&-0.4	-19.5	-2.4%&-0.4%	3.3	1.0%	4.9
CC(C)CNC(=O)c1ccc(Cl)c(N)c1	-3.3%	.	3.9	.	.	.	3.7
CC(C)(C)c1cccc(Oc2nn[nH]n2)c1	9.5%	-0.4	.	-2.6%	11.3	-1.8%[38.3 µM]	-1.6
O=C(Nc1ccc2ccccc2c1)/C(=C/c1cccc(Br)c1)NC(=O)c1ccco1	3.8%	2.3	7.3	.	33.8	3.1%	1.3
Cc1cc(=O)n2nc(N3CCCC(C(=O)NCCc4ccc(Cl)cc4)C3)sc2n1 (configuration not stated)	7.9%	-0.5	9.4	-4.0%	-4.5	1.4%	7.5
Cc1ccc(S(=O)(=O)N2CC3(C)CN(S(=O)(=O)c4ccc(C)cc4)CC(C)(C2)C3=O)cc1	14.0%	0.9	-0.5	0.9%	12.8	?	-0.4

Three compounds out of the list above, ordered by the value under Menin-MLL FL inh, smallest number first:
mol | Menin-MLL FL inh
Cc1cc(C)c[n+](-c2nc([O-])sc2C=O)c1 | -13.4
c1ccc(OCCOCCSc2ncccn2)cc1 | 1.2
CC(C)c1ccc(C2N3CC4([N+](=O)[O-])CN2CC([N+](=O)[O-])(C3)C4(C)C)cc1 (configuration not stated) | 1.7

New compounds follow:
SMILES	Sfp PPTase inh	TRPML1 agonist	TRPV1 PAM	ClpP mod	TRPML1 blocker	PINK1 modulator	Menin-MLL FL inh
Cc1cc(C)cc(OCC(=O)Nc2ccc3c(c2)C(=O)c2ccccc2C3=O)c1	-10.0%	0.1	-24.8	.	-20.1	-0.4%	0.8
COc1cccc(C(=O)NCc2cn3cccc(C)c3n2)c1	.	-0.3	.	-9.1%	-9.1	1.1%	.
COc1cc(C(=O)Nc2ccc(-c3nc4cc(C)c(C)cc4o3)cc2)cc(OC)c1OC	.	-0.3	.	?	13.9	0.8%	.
Cc1ccc(-n2nnnc2SCC(=O)NCCc2ccccc2)cc1C	.	1.3	.	0.8%	53.6	1.8%	.
COc1cc(C(=O)OCC(=O)NC2CCCCC2)cc2c1OCCO2	.	-1.0	-0.9	-5.3%	0.4	2.5%	.
CC1(C)CC2CC(C)(CN2CC(O)COc2ccccc2)C1 (configuration not stated)	-12.2%	0.7	-1.0	.	-6.2	-0.2%	2.2
COc1cccc(Oc2ccc(C(F)(F)F)cc2NC(=O)C2=COCCO2)c1	10.7%	1.2	3.4	-1.8%	20.1	0.8%	.
COc1cc(/C=N/Nc2nc3ccccc3[nH]2)ccc1O	11.2µM*	-0.6	18.2	-5.6%	10.6	3.2%	3.1
CCOC(=O)C1CCCN(c2ncnc3c2[nH]c2cccc(OC)c23)C1 (configuration not stated)	0.9%	.	-5.0	.	.	.	1.7
C[C@@H]1C2CC(C/C2=N\NC(=O)c2ccncc2)C1(C)C (some centres not stated)	7.8%	-1.2	?	-1.1%	-1.1	1.8%	.
CCCCCCC(=O)Nc1ccc2nc3c(=O)n(C)c(=O)n(C)c3nc2c1C	.	1.6	.	1.2%	7.4	1.0%	.
Oc1ccc(Nc2nc(-c3ccccc3O)nc3ccccc23)cc1	6.4%	0.7	-2.0	1.6%	80.3	0.2%	1.0
O=C(C1c2ccccc2Oc2ccccc21)N1CCN(c2ccc(Cl)cc2)CC1	-0.1%	3.9	2.9	-4.5%	-5.6	2.4%	1.9
CCCCOC(=O)COc1ccc(Cl)cc1Cl	.	0.8	-0.2	0.8%	-1.5	7.8%	.
CCOc1ccc(OCC(=O)NCCS(=O)(=O)N2CCN(c3ccc(F)cc3)CC2)cc1	4.3%	-0.4&1.9	20.2	-0.9%&-7.6%	-18.2&-19.9	4.2%&-1.1%	0.6
CC(NC(=O)NNC(N)=S)(C(F)(F)F)C(F)(F)F	44.7µM*	0.8	1.0	-0.5%	22.6	0.6%	0.8
C[C@H](CO)N1C[C@H](C)[C@H](CN(C)S(=O)(=O)c2cccs2)Oc2ccc(NC(=O)Nc3ccc4c(c3)OCO4)cc2CC1=O	.	-1.0	.	-0.5%	-7.2	2.3%	.
O=C(NCCN1CCOCC1)c1cc(-c2ccccc2Cl)on1	6.8%	0.0	17.5	.	2.9	-1.6%	0.7
Cc1ccccc1OCCn1ccnc1	10.1%	0.1	-0.3	0.2%	2.2	0.2%	-0.5
O=S(=O)(c1ccccc1)N1CCN=C1SCc1ccccc1Cl	-14.9%	1.6	?	0.4%	52.6	2.0%	6.8
